# Menin-MLL FL inh: menin-MLL binding inhibition, fluorescein peptide. 290,000 tested, under 10 active. FP activity change, % at 61.4 µM. AID 1766. Fluorescence polarization, fluorescein-MLL peptide displacement from menin; inconclusive = falling polarisation curve, or a change in total fluorescence; inactive = total fluorescence flat and polarisation flat or rising; no compound was filed as active; the % refers to the polarisation; negative = inhibition;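 further: % of control where 0% means no effect; inhibitors lower the polarisation; unlabelled MLL peptide was the positive control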
# Sfp inh: Sfp phosphopantetheinyl transferase inhibition; Potency, µM, for the others: max response, negative = inhibition, usual class: inhibitors; Biochemical Sfp PPTase activity, qHTS; actives 3.5% (n = 310,000); AID 1490; active means well fitted inhibition curve with a large enough effect; inconclusive means small, poorly fitted or top-dose-only effect, or another doubt; inactive means no such curve, though single readings can be large or run the other way;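 further: the enzyme is Sfp with the accession as filed and its product quenches rhodamine fluorescence; potency means the concentration at half of the fitted maximal effect; 0% = enzyme reaction without inhibitor and -100% = no enzyme wells; top concentration of the series not given in the record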
#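 Fluorescence-quenching assay with 15 nM Sfp, 5 uM rhodamine-CoA and 12.5 uM BHQ-2-labelled ybbR peptide in pH 7.6 Hepes/MgCl2 buffer. Enzyme was pre-incubated with compound for 15 min at room temperature. Rate was taken from the 30-min fluorescence change (525/598 nm).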
# gsp agonist: agonists of gsp mutant (McCune-Albright syndrome); gsp mutant cells, cAMP HTRF, 30 min; control for the full effect not named in the record; Potency, µM (doses to about 76.9 µM), without a hit: top-dose activation (cAMP increase), most hits filed as activators; actives 0.13% (n = 340,000); AID 624287; active = well fitted activation curve with a large enough effect; inconclusive = small, poorly fitted or top-dose-only effect, or another doubt; inactive = no such curve, though single readings can be large or run the other way; cell line not stated here;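 further: phosphodiesterase inhibitor Ro 20-1724 added with compounds to block cAMP breakdown; potency means the concentration at half of the fitted maximal effect; nearly all actives have a fitted effect of over 60% in size; about a fifth of the inactives were tested at one dose only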
#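 Cells in DMEM/10% FBS with G418 were pretreated with compounds in DMSO plus […] (300 uM stock) for 30 min at 37C. cAMP was measured by HTRF (cAMP-d2 plus anti-cAMP antibody-K) after 30 min at room temperature.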
# TRPV1 PAM: enhances activation of the human vanilloid receptor TRPV1; Q8NER1; TRPV1-expressing cells, Fluo-8 calcium influx, capsaicin EC20 potentiation; host cell line not named in the record; control for the full effect not named in the record; actives 0.02% (n = 320,000); potentiation, % at 8.33 µM; AID 540277; active means potentiation above 80%; inconclusive means 30% to 80%; inactive means below 30%; further: 0% is about no effect
# Target sequence (Q8NER1 whole entry, looked up): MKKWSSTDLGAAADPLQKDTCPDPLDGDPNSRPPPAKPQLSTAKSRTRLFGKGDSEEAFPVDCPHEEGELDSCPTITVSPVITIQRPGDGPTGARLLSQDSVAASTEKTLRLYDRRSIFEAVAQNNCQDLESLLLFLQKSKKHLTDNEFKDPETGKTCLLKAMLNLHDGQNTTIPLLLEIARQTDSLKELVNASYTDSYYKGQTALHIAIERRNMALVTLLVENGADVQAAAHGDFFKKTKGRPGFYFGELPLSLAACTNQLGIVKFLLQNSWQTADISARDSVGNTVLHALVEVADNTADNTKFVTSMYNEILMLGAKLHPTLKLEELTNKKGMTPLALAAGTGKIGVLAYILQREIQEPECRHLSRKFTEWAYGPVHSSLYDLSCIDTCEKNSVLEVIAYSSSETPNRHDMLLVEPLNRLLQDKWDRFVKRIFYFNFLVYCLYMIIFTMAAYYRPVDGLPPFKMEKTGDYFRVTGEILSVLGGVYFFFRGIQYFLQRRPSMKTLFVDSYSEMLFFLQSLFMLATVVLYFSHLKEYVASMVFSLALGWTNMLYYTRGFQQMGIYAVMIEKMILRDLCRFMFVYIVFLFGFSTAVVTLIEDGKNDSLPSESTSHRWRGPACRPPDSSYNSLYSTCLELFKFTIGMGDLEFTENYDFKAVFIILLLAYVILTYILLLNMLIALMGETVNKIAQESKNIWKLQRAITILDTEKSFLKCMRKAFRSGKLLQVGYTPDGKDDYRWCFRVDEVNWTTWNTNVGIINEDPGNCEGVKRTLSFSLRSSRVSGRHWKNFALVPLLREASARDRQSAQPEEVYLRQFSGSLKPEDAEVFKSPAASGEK
#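 Fluo-8 calcium influx in TRPV1-expressing cells, kinetic read (ex 480/em 520 nm). Compound added and read 3 min for agonist activity, followed by capsaicin at EC20 final and 2 min further read for enhancement.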
# ClpP mod: qHTS Assay for Activators of ClpP; ATP-dependent Clp protease proteolytic subunit (Bacillus subtilis (strain 168)), P80244; purified B. subtilis ClpP, FRET peptide cleavage, 20 min; Potency, µM (doses to about 57.5 µM), for the others: at the top dose activity change, negative = active; actives 1.9% (n = 340,000); AID 651965, 2013; active = well fitted falling curve with a large enough effect; inconclusive = small, poorly fitted or top-dose-only effect; inactive = no such curve, though single readings can be large or run the other way; further: potency means the concentration at half of the fitted maximal effect; the source files actives as falling curves though it sought activators and does not explain the sign; nearly all actives have a fitted effect of over 65% in size; many hits overshoot -100%
# Target sequence (P80244 whole entry, looked up): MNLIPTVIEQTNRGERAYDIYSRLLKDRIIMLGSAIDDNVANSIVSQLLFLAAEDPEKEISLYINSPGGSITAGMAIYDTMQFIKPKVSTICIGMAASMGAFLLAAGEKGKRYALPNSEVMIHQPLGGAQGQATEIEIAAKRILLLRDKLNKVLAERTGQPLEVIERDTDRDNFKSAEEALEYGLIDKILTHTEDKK
#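 Buffer: 100 mM Tris/HCl pH8, 100 mM KCl, 0.05% low protease BSA, 2.5% glycerol, 0.01% Tween-20. ClpP 10 microg/mL final; 20 min RT; delta FRET normalized to ADEP and DMSO controls.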
# D2 potentiator: human D2 receptor positive allosteric modulation; potentiation, % (test concentration not listed); DiscoveRx D2 beta-arrestin cells, luminescence, 90 min; 100% = 57 uM dopamine signal; actives 0.23% (n = 360,000); AID 624464; active = potentiation of 50% or more; inconclusive = 30% to 50%; inactive = 30% or less;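 further: compound concentration not given in the record; tested on top of an EC20 dose of dopamine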
#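 PathHunter beta-arrestin assay in DiscoveRx D2 cells. Compounds were added with an EC20 of dopamine (50 nM final) for 90 min at 37 deg C. Luminescence was read 1 h after detection reagent, with 57 uM dopamine as the EC100 control.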
# gsp antag: antagonists of gsp mutant (McCune-Albright syndrome); Potency, µM (series often up to 76.9 µM), without a hit: at the top dose activity change, negative = inhibition, actives largely listed as inhibitors; gsp-mutant cells, cAMP HTRF, 30 min; control for the full effect not named in the record; actives 0.4% (n = 340,000); active = falling curve of any shape with a large fitted effect; inconclusive = falling curve, mostly with a smaller effect; inactive = flat or rising curve; cell line not stated here;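 further: intracellular cAMP measured with PDE inhibitor Ro 20-1724 present during compound exposure; potency means the concentration at half of the fitted maximal effect; on the % scale 0 is the no-effect control and ±100 the full control effect; nearly all actives have a fitted effect of over 65% in size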
#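 HTRF cAMP measurement after 30 min RT detection following 30 min, 37C compound treatment alongside […] (added as 300 uM solution) in G418-selected cells seeded at 2000/well and grown 16–24 h.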
# Starred values were filed as active, the others as inactive; ? = inconclusive; nt = no result given; [ ] = dose if it differs, or a comment.
SMILES	Menin-MLL FL inh	Sfp inh	gsp agonist	TRPV1 PAM	ClpP mod	D2 potentiator	gsp antag
c1coc(-c2nc3nc4ccccc4nc3n2CC2CCCO2)c1 (stereo not given)	?	79µM*	-6%	8	58%	-11	-11%
COc1ccc(-c2cc(=O)oc3cc(OCC(=O)N(C)C4CCS(=O)(=O)C4)ccc23)cc1 (stereo not given)	3.0	11%	0%	-2	-18%	-11	-2%
CC1=NNC(=O)C1CCC(=O)N/N=C\c1ccc(Cl)c(Cl)c1 (stereo not given)	-0.5	8%	-5%[15.4 µM]	-4	nt	-1	5%
CCOC(=O)C1CCCN(C(=O)Cn2nc(Cc3cccnc3)c3ccccc3c2=O)C1 (stereo not given)	-1.0	7%	0%	-8	-6.2%	-5	-6%
COc1ccccc1C(=O)C1CCCN(C(=O)CCc2ccccn2)C1 (stereo not given)	-1.5	-12%	30%	-8	nt	-9	5%
CN(c1ccccc1)c1cc(Br)nc(Br)c1	nt	nt	0%[15.4 µM]	nt	1.5%	-6	-13%
O=C(CNCc1ccccc1Cl)Nc1ccccc1N1CCCCC1	-0.8	-12%	23%	-5	nt	-17	-10%
CC(C)(C)OC(=O)N1CCC(NC(=O)c2[nH]cnc2C(=O)Nc2ccon2)CC1	nt	nt	nt	3	1.3%	-3	12%
O=C(Nc1cccc(Cl)c1)NC1CC2CCC(C1)N2Cc1ccco1 (stereo not given)	4.1	9%	-58%[inhibitor]	3	1.9%	-4	10%
COc1ccc(N(Cc2ccccc2)S(=O)(=O)c2cccc(C(=O)NC3=NCCS3)c2)cc1	1.2	15%	-57%[inhibitor]	-11	-2.4%	-5	-5%
Cc1[nH]c2ccc(OC(=O)N3CCOCC3)cc2c1C(=O)OC(C)C	0.6	14%	-3%	5	0.0%	-7	-10%
CC1(C)Cc2noc(N)c2C(C)(C)N1OC(=O)c1cccs1	0.3	-1%	10%	18	-2.3%	?	-7%
CN1CCN(c2ccc3c(c2)C2CC3CCN2C(=O)OCc2ccccc2)CC1 (stereo not given)	nt	nt	nt	nt	-0.8%	-21	8%
CCOc1cc(/C=C2\SC(N3CCCCC3)=NC2=O)ccc1O	?	3%	-11%	-27	nt	-15	1%
COc1ccc(NC(C)=O)cc1S(=O)(=O)N1CC=C(c2ccccc2)CC1	nt	nt	-38%[inhibitor]	nt	1.8%	-6	13%
CSc1ccc(CCNC(=O)c2cc(C)nn2-c2ccccc2)cc1	2.3	11%	-2%	1	6.2%	-3	-2%
COC(=O)c1ccc(N)nc1	-1.1	9%	11%	13	nt	0	-1%
O=S1(=O)N=C(Nc2nncs2)c2ccccc21	1.8	50µM*	19%	-6	-4.1%	-9	6%
COc1ccc(-c2nnc(N3CCC(C)CC3)c3ccccc23)cc1	3.2	16%	-69%[inhibitor]	1	-0.8%	2	-6%
COc1nc(NCc2ccco2)nc(N2CCC(C)CC2)n1	-1.5	-9%	-25%	1	-5.1%	-6	0%
Cc1ccc(S(=O)(=O)NC(C)C(=O)OCC(=O)Nc2sccc2C(N)=O)cc1 (stereo not given)	nt	nt	-76%[inhibitor]	nt	0.8%	4	nt
COCCN1CCN(C(=O)C2CCC(=O)N(Cc3cccc(C(F)(F)F)c3)C2)CC1 (stereo not given)	nt	20%	-95%[inhibitor]	2	2.0%	2	12%
O=C(C1CCC(CNc2c(N3CCCCC3)c(=O)c2=O)CC1)N1CCCCC1 (stereo not given)	3.5	12%	29%	-3	-0.7%	-3	3%
Cc1cc(C(=O)c2cccs2)c(N)s1	14	50µM*	-13%	1	-3.5%	-15	-8%
Cn1c(CN2CCN(c3cccc(Cl)c3)CC2)nc2ccccc21	0.3	28%	-6%	13	-22%	-8	-3%

# Random excerpt: two entries already listed.
SMILES	Menin-MLL FL inh	Sfp inh	gsp agonist	TRPV1 PAM	ClpP mod	D2 potentiator	gsp antag
COc1ccc(-c2nnc(N3CCC(C)CC3)c3ccccc23)cc1	3.2	16%	-69%[inhibitor]	1	-0.8%	2	-6%
COc1nc(NCc2ccco2)nc(N2CCC(C)CC2)n1	-1.5	-9%	-25%	1	-5.1%	-6	0%

# (more compounds)
SMILES	Menin-MLL FL inh	Sfp inh	gsp agonist	TRPV1 PAM	ClpP mod	D2 potentiator	gsp antag
O=C(CC1(c2ccc(Cl)cc2)C2CC3CC(C2)CC1C3)NCCO (stereo not given)	-2.2	7%	-1%[15.4 µM]	-30	13µM*	0	20%
Cc1ccc(C(=O)N/C(=C\c2ccc(-c3cccc([N+](=O)[O-])c3)o2)C(=O)NC(C)(C)C)cc1	-0.2	11%	12%	20	2.2%	-1	5%
Cc1ccc(C(=O)C2=C(O)C(=O)N(c3ncccn3)C2c2cccc(Cl)c2)o1 (stereo not given)	2.6	?	nt	-2	nt	nt	nt
C/C(=N\NC(=O)OC(C)(C)C)c1ccc(-n2ccnc2)cc1	-2.6	-6%	1%	?	nt	-1	3%
CCOC(=O)C1CCN(C(=O)c2cn(CCOC)c(=O)c3c2c2ccccc2n3C)CC1	5.3	4%	-6%	4	7.9µM*	-7	-11%
CC(C)c1nnc(NC(=O)CCC2CCCCC2)s1	5.3	1%	-56%[inhibitor]	-8	nt	-3	3%
O=C1Nc2ccccc2C(=O)N2[C@H](c3ccc(F)cc3)[C@@H]3C(=O)N(Cc4ccccc4)C(=O)[C@@H]3[C@H]12	-1.4	3%	-14%	-4	-5.1%	-9	-7%
Cc1nnc(SCC(=O)Nc2ccc(N3CCOCC3)cc2)n1-c1ccccc1	-3.8	?	?	-10	?	8	-6%
Fc1ccccc1CN1CCCCCCC1	0.7	56µM*	?	0	0.4%	-10	1%
O=C1C(=O)N(c2ccc(O)cc2)C(c2ccccc2[N+](=O)[O-])/C1=C(\O)c1ccccc1 (stereo not given)	7.3	?	14%[15.4 µM]	-1	nt	-3	0%
Cc1cccc(CSc2nnc(-c3ccco3)n2C)c1	2.4	7%	29%	-1	-1.0%	-8	-1%
CC(C)CNS(=O)(=O)c1ccc(CCC(=O)N2CCCC2)cc1	0.4	22%	-10%	7	-2.2%	-21	7%
COc1cccc2ccc(CC(O)(c3ccccc3)c3ccccc3)nc12	nt	nt	-41%[inhibitor]	nt	-12%	-7	nt
COC(=O)N/N=C/c1cn(CC(C)COc2ccccc2)c2ccccc12 (stereo not given)	nt	0%	6%	13	-2.3%	-10	-24%
O=C(COC(=O)CCN1C(=O)C2CC=CCC2C1=O)NCCc1ccccc1 (stereo not given)	0.1	2%	-27%	2	-0.4%	-13	2%
Cn1c(=O)c2c(nc(SCc3ccccn3)n2C)n(C)c1=O	0.7	8%	nt	-6	nt	nt	nt
Cc1ccc(S(=O)Cc2ccc(C(=O)N3CCN(C(=O)c4ccco4)CC3)o2)cc1 (stereo not given)	nt	20%	?	-2	-0.6%	2	-14%
CCOC(=O)C1=C(c2ccccc2)OC(N)=C(C#N)C1c1ccco1 (stereo not given)	2.8	1%	-30%	-4	-0.5%	0	-7%
CN1CC(=O)NC1=NC(=O)c1ccc(Cl)c(S(=O)(=O)N2CCCCCC2)c1	0.3	-9%	7%	-20	0.7%	7	-8%
Cc1coc2c1c(C)cc1oc(=O)c(CC(=O)NCCC(=O)O)c(C)c12	-2.9	4%	18%	3	3.6%	-4	6%
CC(CC(=O)N1CCN(c2ccc(C(F)(F)F)cn2)CC1)n1ccnc1 (stereo not given)	-7.0	19%	-21%[15.4 µM]	-17	nt	-8	nt
Cc1ccc(-n2nnc3c(=O)n(CC(=O)N4CCOCC4)cnc32)cc1	3.2	5%	-12%	?	2.1%	-7	3%
CCC(C)NC(=O)C1CCN(c2nc(OC)nc(OC)n2)CC1 (stereo not given)	4.1	9%	3%	1	-1.2%	-1	7%
CCNC(=O)COc1ccc(/C=C2\COc3ccccc3C2=O)cc1OC	-14	-4%	0%[15.4 µM]	?	nt	3	-2%
CC(C)CN(C(=O)COC(=O)CN1C(=O)c2ccccc2C1=O)c1c(N)n(Cc2ccccc2)c(=O)[nH]c1=O	nt	nt	-6%[15.4 µM]	15	nt	-69	10%
CCOC(=O)C1CCN(C(=O)Cc2ccc(C)cc2)CC1	3.2	22%	5%	25	0.0%	-11	2%
Cn1c(SCC(=O)Nc2ccc3[nH]c(=O)[nH]c3c2)nnc1-c1ccc(F)cc1	4.0	7%	-12%	-1	-1.3%	-5	-1%
CNS(=O)(=O)c1cc2c3c(cccc3c1)C(=O)NC2=O	-6.8	16%	2%	-7	-9.3%	-51	13%
Cc1cc(Br)cc(C=Nc2ccc(N3CCOCC3)cc2)c1O	nt	nt	14%	nt	nt	-2	-8%
CCOc1ccc(C(=O)NC(=S)NCc2cccnc2)cc1	1.6	9%	3%	1	-0.4%	5	15%
CCOc1ccc(N2C(=O)C(CC(=O)Nc3ccc(F)cc3)N(Cc3ccccn3)C2=S)cc1 (stereo not given)	-1.0	11%	20%[15.4 µM]	-3	nt	-3	-25%
O=C(COC(=O)c1ccc(Br)o1)Nc1ncc([N+](=O)[O-])s1	nt	nt	-9%	5	1.0%	-1	-14%
O=c1cc(O)c(-c2cccc(C(F)(F)F)c2)c(Cl)[nH]1	4.7	-6%	0%	9	1.3%	-8	3%
CCN(CC)C(=O)[C@H]1C[C@H](CC(=O)NCCCN(C)C)C(=O)N2CCc3c([nH]c4cc(CCC(=O)N(C)C)ccc34)[C@]12C	nt	nt	nt	nt	-2.5%	-6	9%
Cc1ccccc1NCc1nc2ccccc2n1C	0.7	12%	-29%	26	-1.2%	-6	0%
O=C(Cc1ccc(S(=O)(=O)N2CCCC2)s1)Nc1cccc([N+](=O)[O-])c1	nt	nt	-5%	nt	-0.1%	-25	-12%
CSc1ccc(S(=O)(=O)NCC(=O)OCCOc2ccccc2)cc1[N+](=O)[O-]	nt	nt	40%[15.4 µM]	-6	nt	-52	-16%
O=C(NC(=S)Nc1ccccc1C(F)(F)F)c1ccccc1F	-0.7	-1%	-8%[15.4 µM]	-7	nt	-6	5%
CC(C)CN(C(=O)COC(=O)CCN1C(=O)c2ccccc2C1=O)C1CCS(=O)(=O)C1 (stereo not given)	19	-6%	30%	4	-1.3%	4	1%
